BJeLR viab HTS: BJeLR cell viability loss, primary screen, luminescence, CellTiterGlo ATP; BJeLR fibroblasts viability, 48 h; HRASV12, hTERT and SV40 LT/ST transformed; viability loss activity score, % (test concentration not listed); 30,000 tested, 0.64% active; in the data active means viability loss activity score above about 50%; about a fifth of its hits are not listed in these tables;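 further: higher score means fewer live cells and less ATP luminescence; stock transfer was 50 or 100 nL into about 30 µL; 0% = vehicle wells and 100% = a reference killing control; one replicate is shown; the record names a cut of 85%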
A1 inhib: inducers of caspase activity in MEF A1-2A-BIM cells, primary screen, A1 inhibitor project, cell-based, CaspaseGlo luminescence; caspase-Glo luminescence, 3 h; percent of clofoctol signal, DMSO as zero; caspase activation, % (test concentration not listed); 21,000 tested, 0.51% active;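 active means most replicate scores above 10, or exactly half above 10 with mean activity above 10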;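 further: effector caspase 3 and 7 activity cleaving a DEVD luciferin substrate; 50 nL library stock added to about 30 µL; numbers are from one replicate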
* = called active by the depositor; x = no result given. Only part of the results is shown; the hit share may differ from the screen's.

SMILES	BJeLR viab HTS	A1 inhib
Cc1ccc(S(=O)(=O)Nc2ccc3c(c2)C(=O)N([C@H](C)CO)C[C@H](C)[C@H](CN(C)C(=O)Nc2ccc(C(F)(F)F)cc2)O3)cc1	-1.3	0.0
C[C@@H]1CN([C@@H](C)CO)C(=O)c2cc(NC(=O)Cc3ccccc3)ccc2O[C@H]1CN(C)C(=O)Nc1ccccc1	-0.7	0.3
C[C@@H]1CN([C@H](C)CO)C(=O)c2cc(NC(=O)Nc3ccc(C(F)(F)F)cc3)ccc2O[C@@H]1CN(C)C(=O)NC1CCCCC1	2.5	0.1
Cc1ccc(S(=O)(=O)Nc2ccc3c(c2)C(=O)N([C@H](C)CO)C[C@@H](C)[C@H](CN(C)S(=O)(=O)c2ccc(Cl)cc2)O3)cc1	-3.2	-0.5
C=C1C2=C(O[C@H](/C(C)=C/C(C)CC(C)CC)[C@@H](O)[C@@H]2O)C(=O)N1OC (stereo not given in full)	-0.3	-0.4
Cc1noc(C)c1NC(=O)Nc1ccc2c(c1)C(=O)N([C@@H](C)CO)C[C@H](C)[C@H](CN(C)Cc1ccc(C(F)(F)F)cc1)O2	3.2	-0.1
CN(C(=O)CSc1nncn2c1cc1sccc12)c1ccccc1	-2.3	0.1
CCNc1nc(NCC)nc(C(=O)OCCO)n1	-0.9	x
C[C@H](CO)N1C[C@H](C)[C@@H](CN(C)Cc2ccc(C(F)(F)F)cc2)Oc2ccc(NS(=O)(=O)c3ccc(F)cc3)cc2C1=O	-1.7	-0.3
Cc1nc2sc3c(c2c2nnc(SCC(=O)c4ccccc4)n12)CCCC3	-6.7	0.1
C[C@@H]1CN([C@@H](C)CO)C(=O)c2cccc(NC(=O)Nc3ccc(C(F)(F)F)cc3)c2O[C@@H]1CN(C)CC1CCCCC1	6.1	x
C[C@H]1CN([C@@H](C)CO)C(=O)c2cc(NS(=O)(=O)c3ccc(F)cc3)ccc2O[C@@H]1CN(C)S(=O)(=O)c1cccs1	1.7	-0.1
Cc1ccc(S(=O)(=O)N(C)C[C@@H]2Oc3c(NC(=O)C4CCCCC4)cccc3C(=O)N([C@@H](C)CO)C[C@@H]2C)cc1	5.8	x
C[C@@H]1CN([C@@H](C)CO)C(=O)c2cccc(NC(=O)c3ccncc3)c2O[C@@H]1CN(C)C(=O)Nc1ccccc1	0.3	x
COc1ccc(-n2c(=S)[nH]c3cc(C(=O)NC4CCCC(C)C4C)ccc3c2=O)c(OC)c1 (stereo not given)	-7.2	-1.1
C[C@@H]1CN([C@@H](C)CO)C(=O)c2cc(NC(=O)Nc3ccc(C(F)(F)F)cc3)ccc2O[C@@H]1CN(C)S(C)(=O)=O	6.2	0.2
C[C@H]1CN([C@@H](C)CO)C(=O)c2cc(NC(=O)CCC(F)(F)F)ccc2O[C@@H]1CN(C)CC1CCCCC1	3.5	-0.6
COc1cccc(-c2nn(C)c3sc(C(=O)N4CCCCC4C)cc23)c1 (stereo not given)	-4.2	x
Cc1ccc(S(=O)(=O)Nc2cccc3c2O[C@H](CN(C)C(=O)Nc2ccc(C(F)(F)F)cc2)[C@H](C)CN([C@H](C)CO)C3=O)cc1	1.2	x
FC(F)(F)c1cccc(Nc2ncnc3sc4c(c23)CCC4)c1	5.9	0.6
C[C@@H]1CN([C@H](C)CO)C(=O)c2cc(NS(=O)(=O)c3ccc(Cl)cc3)ccc2O[C@H]1CN(C)S(=O)(=O)c1ccccc1	1.5	0.5
O=C(CCc1nc2cccnc2n1-c1ccccc1)NC1CCCC1	8.7	x
COc1ccc(NC(=O)N(C)C[C@@H]2Oc3c(NS(=O)(=O)c4ccc(OC)cc4)cccc3C(=O)N([C@H](C)CO)C[C@@H]2C)cc1	1.9	x
CC(C)(C)c1ccc(C(=O)NCCN2CCOCC2)cc1	3.6	0.2
CC(C)NC(=O)Nc1cccc2c1O[C@H](CN(C)Cc1ccccc1)[C@@H](C)CN([C@@H](C)CO)C2=O	-0.3	x
SMILES	BJeLR viab HTS	A1 inhib
CCOC(=S)SCc1cn2cccnc2n1	-3.7	0.6
COC(=O)c1ccccc1NC(=S)N1CCCCC1	2.3	1.5
Cc1noc(C)c1S(=O)(=O)Nc1ccc2c(c1)C(=O)N([C@@H](C)CO)C[C@@H](C)[C@@H](CN(C)Cc1ccncc1)O2	-1.3	0.1
COc1ccc(S(=O)(=O)N(C)C[C@@H]2Oc3c(NC(=O)Nc4ccc5c(c4)OCO5)cccc3C(=O)N([C@@H](C)CO)C[C@H]2C)cc1	12.1	x
O=c1[nH]c2ncccc2c(=O)n1Cc1ccccc1	-5.6	-0.1
C=CCSc1nnc2n(-c3ccccc3)c(=O)c3c(C)c(C)sc3n12	-1.3	-0.7
C[C@H](CO)N1C[C@H](C)[C@@H](CN(C)C(=O)NC2CCCCC2)Oc2c(NC(=O)Nc3ccccc3)cccc2C1=O	0.7	x
CCN(CC)C(=O)c1ccc(O)c(OC)c1	-4.0	-0.3
O=C(/C=C/c1ccccc1)OCC1=CC[C@@H]2C(C(=O)O)=CO[C@@H](O[C@@H]3O[C@H](CO)[C@@H](O)[C@H](O)[C@H]3O)[C@H]12	4.4	-0.3
C[C@@H]1CN([C@@H](C)CO)C(=O)c2cc(NC(=O)CCCCCC(=O)Nc3ccccc3N)ccc2O[C@H]1CN(C)Cc1ccc2c(c1)OCO2	-1.8	x
COc1ccc(OC(=O)N2CCOCC2)cc1	-4.1	0.0
O=S(=O)(Cc1cccc(C(F)(F)F)c1)Cc1nc(-c2ccc(C(F)(F)F)cc2)cs1	-2.7	0.4
CCCCN1C2=NC3C=CC=CN3C(=O)C2=CC(C(=O)OCC)C1=NC(=O)c1ccccc1 (stereo not given)	-9.6	x
C[C@@H]1CN([C@@H](C)CO)C(=O)c2cccc(NC(=O)Nc3ccc4c(c3)OCO4)c2O[C@H]1CN(C)Cc1ccc(C(=O)O)cc1	8.7	x
COC(=O)C1=C(C(=O)c2ccccc2)C(c2ccc(C(=O)OC)cc2)n2nnnc2N1 (stereo not given)	-3.0	x
COc1ccc(NC(=O)Nc2cccc3c2O[C@@H](CN(C)Cc2ccc(C(F)(F)F)cc2)[C@@H](C)CN([C@H](C)CO)C3=O)cc1	-1.0	x
C[C@@H]1CN([C@@H](C)CO)C(=O)c2cc(NS(C)(=O)=O)ccc2O[C@@H]1CN(C)Cc1ccc(Oc2ccccc2)cc1	-1.3	0.2
Cc1ccc(S(=O)(=O)Nc2cccc3c2O[C@@H](CN(C)C(=O)Nc2ccccc2)[C@H](C)CN([C@@H](C)CO)C3=O)cc1	-0.8	x
C[C@H]1CN([C@@H](C)CO)C(=O)c2cc(NC(=O)Nc3cccc4ccccc34)ccc2O[C@@H]1CN(C)S(=O)(=O)c1ccc(F)cc1	-6.6	0.7
c1ccc(-c2nnc(N3CCOCC3)nc2-c2ccccc2)cc1	-0.5	-0.5
CC(C)NC(=O)N(C)C[C@H]1Oc2c(NC(=O)C3CCOCC3)cccc2C(=O)N([C@H](C)CO)C[C@@H]1C	10.3	x
C[C@@H]1CN([C@@H](C)CO)C(=O)c2cc(NC(=O)Nc3ccccc3)ccc2O[C@@H]1CN(C)S(=O)(=O)c1cccs1	6.9	0.7
O=C(O)c1ccc(NS(=O)(=O)c2ccc3c4c(cccc24)C(=O)N3)cc1	4.1	0.5
CCOc1cc(C(=S)N2CCCC2)ccc1OCc1ccccc1F	0.4	-1.2
COc1ccc(S(=O)(=O)Nc2cccc3c2O[C@@H](CN(C)S(=O)(=O)c2ccc(F)cc2)[C@H](C)CN([C@H](C)CO)C3=O)cc1	-0.6	x
SMILES	BJeLR viab HTS	A1 inhib
Cc1ccc(-c2nnc(N3CCCCC3)c3ccccc23)cc1C	-0.9	-1.1
Cc1ccc(S(=O)(=O)Nc2cccc3c2O[C@H](CN(C)C(=O)Nc2ccc(F)cc2)[C@H](C)CN([C@H](C)CO)C3=O)cc1	1.8	x
CC(C)(O)C(O)COc1c2ccoc2cc2oc(=O)ccc12 (stereo not given)	3.9	0.4
Cc1ccc(C(C)C)c(O)c1C(=O)O	2.0	-1.3
CNC[C@@H]1Oc2c(NC(=O)Nc3ccc(F)cc3)cccc2C(=O)N([C@@H](C)CO)C[C@@H]1C	4.0	x
O=C(NCc1ccc(-c2cccs2)s1)c1c(Cl)cccc1Cl	1.8	0.4
C[C@H]1CN([C@@H](C)CO)C(=O)c2cc(N(C)C)ccc2O[C@H]1CN(C)Cc1ccc(C(F)(F)F)cc1	-2.2	-0.6
CCc1ccc(CC(=S)N2CCOCC2)cc1	3.4	0.5
COc1ccc(NC(=O)N(C)C[C@H]2Oc3c(NC(=O)Nc4cccc5ccccc45)cccc3C(=O)N([C@@H](C)CO)C[C@@H]2C)cc1	3.4	x
Cc1nc2ccc(F)cc2c2c1CCN2c1ccc(Cl)cc1	4.3	-1.0
CCN(CC)C(=O)Cn1cc(SCc2ccccc2)c2ccccc21	-2.2	-1.3
CC(C)C1CCC(C)C(C(O)c2ccc(-c3ccccc3)cc2)C1=O (stereo not given)	1.2	-0.3
C[C@H](CO)N1C[C@H](C)[C@H](CN(C)Cc2ccc(C(=O)O)cc2)Oc2c(NC(=O)c3cnccn3)cccc2C1=O	3.4	x
C[C@H](CO)N1C[C@H](C)[C@@H](CN(C)S(=O)(=O)c2ccc(F)cc2)Oc2c(NS(=O)(=O)c3ccc(F)cc3)cccc2C1=O	2.7	x
C[C@@H]1CN([C@H](C)CO)C(=O)c2cc(NC(=O)NC3CCCCC3)ccc2O[C@H]1CN(C)C(=O)Nc1ccc2c(c1)OCO2	0.5	0.5
O=C(CC(C(=O)N1CCc2ccccc21)n1ccnc1)NCc1ccccc1 (stereo not given)	3.3	1.2
Cn1nc(-c2ccc(C(=O)Nc3ccc(Cl)cc3)s2)cc1C(F)(F)F	2.1	-0.1
COc1ccc(S(=O)(=O)N(C)C[C@@H]2Oc3ccc(NC(=O)Cn4cnnn4)cc3C(=O)N([C@H](C)CO)C[C@@H]2C)cc1	2.7	0.3
CCOc1ccc(CNc2ccc(CNc3ncn[nH]3)cc2)cc1	1.0	x
O=c1ccn(-c2ccc(F)cc2)nc1-c1ccn[nH]1	-3.5	0.7
Cc1cccc(NC(=O)/C=C/c2ccccc2)c1	6.2	-6.6
C[C@@H]1CN([C@H](C)CO)C(=O)c2cc(N(C)C)ccc2O[C@@H]1CN(C)S(C)(=O)=O	-4.4	1.2
O=C(CCc1ccccc1)NCc1ccccn1	8.3	-1.3
COC(CNC(=O)C1CCN(S(=O)(=O)c2cccc3nsnc23)CC1)OC	0.9	x
O=C(CSC1=NC(=O)C(c2ccccc2)C(=O)N1)NC1CCCCC1 (stereo not given)	-0.7	-0.1
SMILES	BJeLR viab HTS	A1 inhib
C[C@@H]1CN([C@@H](C)CO)C(=O)c2cccc(NC(=O)c3cnccn3)c2O[C@@H]1CN(C)CC1CCCCC1	0.8	x
COc1ccc(S(=O)(=O)Nc2ccc3c(c2)C(=O)N([C@@H](C)CO)C[C@@H](C)[C@@H](CN(C)Cc2ccccc2)O3)cc1	-1.3	0.0
Cc1ccc(Cn2nnc3c(=O)n(Cc4cccc(C)c4)cnc32)cc1	0.9	0.4
C[C@H](CO)N1C[C@H](C)[C@H](CN(C)Cc2ccncc2)Oc2ccc(NS(=O)(=O)c3cccs3)cc2C1=O	-0.9	-0.2
Cc1ccc(S(=O)(=O)Nc2ccc3c(c2)C(=O)N([C@H](C)CO)C[C@H](C)[C@H](CN(C)Cc2ccc(C(F)(F)F)cc2)O3)cc1	3.7	0.3
Cc1c2cnn(-c3ccccc3)c(=O)c2c(C)n1CCCC(=O)N(C)Cc1ccccc1	-4.5	0.1
C[C@H](CO)N1C[C@H](C)[C@@H](CN(C)Cc2ccc(-c3ccccc3)cc2)Oc2c(NC(=O)Nc3ccccc3)cccc2C1=O	0.8	x
C/C=C(/C)C(=O)OC1C(OC(C)=O)c2c(ccc3ccc(=O)oc23)OC1(C)C (stereo not given)	-1.2	-1.9
Cc1noc(C)c1NC(=O)N(C)C[C@@H]1Oc2ccc(NC(=O)NC(C)C)cc2C(=O)N([C@@H](C)CO)C[C@H]1C	0.4	-0.3
Cc1noc(C)c1S(=O)(=O)Nc1ccc2c(c1)C(=O)N([C@H](C)CO)C[C@H](C)[C@@H](CN(C)S(=O)(=O)c1ccc(Cl)cc1)O2	-2.4	0.1
O=C(C1CCCCN1S(=O)(=O)c1ccc(F)cc1)N1CCN(c2ccccc2F)CC1 (stereo not given)	5.6	x
